High-throughput results deposited in PubChem BioAssay by Sanford-Burnham Center for Chemical Genomics.
CHOP UPR activ = apoptotic UPR (CHOP) activation; activation, % at 10 µM; CHO-CHOP luciferase reporter, luminescence; percent of tunicamycin response over DMSO baseline; 330,000 tested, 0.34% active;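 active = at 10 µM dose, activation of 40% or more, normalized to positive control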;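 note: 100% = tunicamycin at 10 µg/mL and 0% = DMSO alone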
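Assay system: CHO-CHOP cells, stable luciferase reporter of PERK-eIF2a-CHOP signalling / Buffer or medium: F12 plus 10% serum / Compound dosing: one dose, 10 µM in 0.5% DMSO / Times: 6 h compound treatment, 37 °C / Technique: luciferase luminescence / Read-out: % reporter activation, DMSO baseline versus tunicamycin full activation / Benchmarks: tunicamycin and DMSO controls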
CXCR6 block = CXCR6 (human) receptor inhibition; O00574; CHO-K1 PathHunter CXCR6 beta-arrestin, luminescence; inhibition, % at 20 µM; 360,000 tested, 0.36% active; AID 602244; in the data active = inhibition above about 34%, passing the limit was not always enough;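 note: antagonist mode with CXCL16 agonist at 10 nM final; 0% = 10 nM CXCL16 with DMSO and 100% = unstimulated wells without agonist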
Target sequence (O00574 whole entry, looked up): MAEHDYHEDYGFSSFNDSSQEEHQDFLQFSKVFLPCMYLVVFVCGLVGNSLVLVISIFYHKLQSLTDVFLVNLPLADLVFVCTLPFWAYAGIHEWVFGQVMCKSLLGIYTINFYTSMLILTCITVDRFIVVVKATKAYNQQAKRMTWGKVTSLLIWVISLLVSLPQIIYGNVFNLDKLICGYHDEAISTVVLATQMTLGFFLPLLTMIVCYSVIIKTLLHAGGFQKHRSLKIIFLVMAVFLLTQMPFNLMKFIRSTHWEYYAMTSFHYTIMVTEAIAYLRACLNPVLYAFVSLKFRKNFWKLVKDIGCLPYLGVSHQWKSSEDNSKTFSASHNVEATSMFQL
CCR6 antagonist = antagonists of human CCR6 receptor. 340,000 tested, 0.49% active. inhibition, % at 20 µM. P51684. CHO-K1 CCR6 PathHunter beta-arrestin, luminescence, CCL20-stimulated. AID 493098;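 active = compounds whose inhibition of the agonist-driven luminescence signal at 20 µM reaches about 50%, limit read from the data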;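 note: cells stimulated with CCL20 at 14 nM final; plate controls were DMSO with CCL20 for no effect and DMSO without agonist for full effect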
EBI2 antag = EBI2 (human) antagonism; P32249; AID 651636; 360,000 tested, 0.81% active; EBI2 beta-arrestin recruitment, luminescence, 7a,25-OHC stimulated; inhibition, % at 5 µM; in the data active = inhibition above about 38%;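 note: enzyme fragment complementation signal reports receptor beta-arrestin coupling in cells; 0% = agonist plus DMSO wells and 100% = wells without agonist; some results beyond the cut were filed as inactive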
XBP1 UPR activ = activators of adaptive arm of unfolded protein response (XBP1). CHO-XBP1 luciferase reporter, IRE1-XBP1 UPR activation, luminescence; percent of tunicamycin response, DMSO as zero. activation, % at 20 µM. 330,000 tested, 0.33% active;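 active = versus positive control, 20 µM dose yields 30% or more activation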;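 note: 100% = tunicamycin at 10 µg/mL and 0% = DMSO only wells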
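Assay system: IRE1-XBP1 luciferase reporter CHO line. Input: 1000 cells/well. Buffer or medium: F12 with 10% serum. Doses: 20 µM, 1% DMSO. Times: overnight seeding at 37 °C, 6 h compound treatment at 37 °C. Technique: Steady-Glo luciferase glow luminescence, 10 min after reagent addition.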
* = called active by the depositor; / = not tested or not shown; & = joins results of further samples. Some of the compounds tested (hit frequency here may not be typical).

Second line of a record – CXCR6 block	CCR6 antagonist	XBP1 UPR activ	EBI2 antag	CHOP UPR activ
C[C@]12CC[C@H]3[C@@H](CCC4=CC(=O)CC[C@@]43C)[C@@H]1CC[C@@H]2O
→ -4&2	13&9	-1	-6&11	-0.3
CN1CCC23c4c5ccc(O)c4O[C@@H]2[C@H](O)C=CC3C1C5 (some centres not stated)
→ 6	13	-3	10	-1.3
O=C(O)c1nn(Cc2ccc(Cl)cc2Cl)c2ccccc12
→ 7	2	-6	-2	0.9
CCCCCCCCCCCCCCCC[N+](C)(C)C
→ 18	22	-3	7	-1.0
CC(C)CC(C)N (configuration not stated)
→ -3	0	0	7	-0.4
Cc1cccc(N=Nc2ccc(N(C)C)cc2)c1
→ 18	27	-3	18	0.8
O=C(NCNC(=O)NC1C(=O)NC(=O)N1CO)NC1C(=O)NC(=O)N1CO (configuration not stated)
→ -9	18	-4	-6	-1.1
O=[N+]([O-])c1c2ccccc2cc2ccccc12
→ -1	1	1	1	3.1
O=C(O)C(Cl)(Cl)Cl
→ 0	-7	-5	2	-0.3
CC(C)OC(=O)Cc1ccccc1
→ 6	-5	-1	2	0.0
O=C(Nc1ccc(F)cc1F)c1cccnc1Oc1cccc(C(F)(F)F)c1
→ 0	0	0	-19	-2.8
CCOC(=O)c1ccccc1N
→ 2	0	2	-2	-0.8
CC[n+]1c(/C=C/N(C)c2ccccc2)sc2ccc(Cl)cc21
→ -2	21	1	-6	-1.0
COc1ccc2c3c1OC1[C@H](O)CCC4[C@@H](C2)N(C)CC[C@]314 (some centres not stated)
→ 0	0	-1	4	-0.5
Cc1ccc(N)c(C)c1
→ 4	-7	0	7	0.0
CC(C)=CCN1CC[C@@]2(C)c3cc(O)ccc3CC1C2C (some centres not stated)
→ 6	14	-3	-1	-1.1
C[N+]1(C)C2CC(OC(=O)C(CO)c3ccccc3)CC1C1OC12 (configuration not stated)
→ -8	10	-3	-6	-2.0
CC(C)OS(C)(=O)=O
→ 6	-10	-1	-1	0.2
COc1cc(N)c(Cl)cc1C(=O)NC1CN2CCC1CC2 (configuration not stated)
→ /	/	-6	/	0.9
COc1nc(C)nc(NC(=O)NS(=O)(=O)c2ccccc2Cl)n1
→ -2	-7	-3	0	-1.0
OCC(Br)CBr (configuration not stated)
→ -2	-19	-1	-7	0.4
c1ccc2c(c1)OCC(C1=NCCN1)O2 (configuration not stated)
→ -4	2	-3	9	1.5
COc1c2c(cc3c1OCO3)CCN(C)C2
→ 2	-5	-1	0	-2.3
O=Cc1cn(Cc2ccc(F)cc2Cl)c2ccccc12
→ -5	1	-1	5	-0.3
c1ccc2c(c1)Sc1ccccc1N2CC1CN2CCC1CC2 (configuration not stated)
→ 2	5	2	-1	0.0

Results in CXCR6 block and XBP1 UPR activ (2 entries from above):
smiles | CXCR6 block | XBP1 UPR activ
OCC(Br)CBr (configuration not stated) | -2 | -1
COc1c2c(cc3c1OCO3)CCN(C)C2 | 2 | -1

Part of the list above, set out differently:
| canonical_smiles | CXCR6 block | CCR6 antagonist | XBP1 UPR activ | EBI2 antag | CHOP UPR activ |
| --- | --- | --- | --- | --- | --- |
| CC(C)CC(C)N (configuration not stated) | -3 | 0 | 0 | 7 | -0.4 |
| Cc1cccc(N=Nc2ccc(N(C)C)cc2)c1 | 18 | 27 | -3 | 18 | 0.8 |
| O=C(NCNC(=O)NC1C(=O)NC(=O)N1CO)NC1C(=O)NC(=O)N1CO (configuration not stated) | -9 | 18 | -4 | -6 | -1.1 |
| O=[N+]([O-])c1c2ccccc2cc2ccccc12 | -1 | 1 | 1 | 1 | 3.1 |
| O=C(O)C(Cl)(Cl)Cl | 0 | -7 | -5 | 2 | -0.3 |
| CC(C)OC(=O)Cc1ccccc1 | 6 | -5 | -1 | 2 | 0.0 |
| O=C(Nc1ccc(F)cc1F)c1cccnc1Oc1cccc(C(F)(F)F)c1 | 0 | 0 | 0 | -19 | -2.8 |
| CCOC(=O)c1ccccc1N | 2 | 0 | 2 | -2 | -0.8 |
| CC[n+]1c(/C=C/N(C)c2ccccc2)sc2ccc(Cl)cc21 | -2 | 21 | 1 | -6 | -1.0 |
| COc1ccc2c3c1OC1[C@H](O)CCC4[C@@H](C2)N(C)CC[C@]314 (some centres not stated) | 0 | 0 | -1 | 4 | -0.5 |
| Cc1ccc(N)c(C)c1 | 4 | -7 | 0 | 7 | 0.0 |
| CC(C)=CCN1CC[C@@]2(C)c3cc(O)ccc3CC1C2C (some centres not stated) | 6 | 14 | -3 | -1 | -1.1 |
| C[N+]1(C)C2CC(OC(=O)C(CO)c3ccccc3)CC1C1OC12 (configuration not stated) | -8 | 10 | -3 | -6 | -2.0 |
| CC(C)OS(C)(=O)=O | 6 | -10 | -1 | -1 | 0.2 |
